# Assay outcomes as filed in PubChem BioAssay.
# GLA inh pH 4.5: alpha-galactosidase A (human) inhibition, pH 4.5 | P06280 | purified enzyme, 4-MU-alpha-Gal fluorescence, pH 4.5 | activity change, negative = inhibition, % at 105 µM | 230,000 tested, under 10 active | AID 1467; inconclusive = small, poorly fitted or top-dose-only inhibition, or a rising curve; inactive = flat fitted curve, though single readings scatter; no compound was filed as active;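 note: 0% = full activity with enzyme and -100% = basal without enzyme; dose as in the result columns while the protocol names 77 µM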
# miR-21 FLuc: miR-21 reporter, rising signal. Potency, µM (titrated, usually from 38.3 µM), for the others: at the highest dose reporter change, positive = more light. 340,000 tested, under 10 active. AID 2288. HeLa miR-21 FLuc reporter, luciferase, 48 h; active = well fitted rising curve with a large enough effect; inconclusive = small, poorly fitted or top-dose-only effect; inactive = no such curve, though single readings can be large or run the other way;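 note: % of control where 0% means no effect; miR-21 action dims this reporter so a rising signal means less miR-21 action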
#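 HeLa miR-21-FLuc reporter line, endogenous miR-21; 2000 cells/well in DMEM/10% FBS; compound titration up to ~40uM final, 48 h, 37 degree Celsius; luciferase detection reagent, 15 min lysis, CCD luminescence.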
# Rango complex inh: inhibitors of Rango-importin beta complex formation | Q14974 | Rango CFP/YFP FRET sensor + importin beta, 45 min | Potency, µM (highest dose often 92.2 µM), inactives show top-dose inhibition of complex formation | 0.031% of 340,000 active | AID 540263; active = rising FRET ratio curve, often small or poorly fitted; inconclusive = mostly compound fluorescence or quenching in the first reads; inactive = flat curves in all reads;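 note: potency is the fitted concentration of half-maximal effect; 0% = DMSO wells and 100% = buffer wells lacking importin beta; nearly all actives have a fitted effect of over 15% in size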
# Target sequence (Q14974 whole entry, looked up): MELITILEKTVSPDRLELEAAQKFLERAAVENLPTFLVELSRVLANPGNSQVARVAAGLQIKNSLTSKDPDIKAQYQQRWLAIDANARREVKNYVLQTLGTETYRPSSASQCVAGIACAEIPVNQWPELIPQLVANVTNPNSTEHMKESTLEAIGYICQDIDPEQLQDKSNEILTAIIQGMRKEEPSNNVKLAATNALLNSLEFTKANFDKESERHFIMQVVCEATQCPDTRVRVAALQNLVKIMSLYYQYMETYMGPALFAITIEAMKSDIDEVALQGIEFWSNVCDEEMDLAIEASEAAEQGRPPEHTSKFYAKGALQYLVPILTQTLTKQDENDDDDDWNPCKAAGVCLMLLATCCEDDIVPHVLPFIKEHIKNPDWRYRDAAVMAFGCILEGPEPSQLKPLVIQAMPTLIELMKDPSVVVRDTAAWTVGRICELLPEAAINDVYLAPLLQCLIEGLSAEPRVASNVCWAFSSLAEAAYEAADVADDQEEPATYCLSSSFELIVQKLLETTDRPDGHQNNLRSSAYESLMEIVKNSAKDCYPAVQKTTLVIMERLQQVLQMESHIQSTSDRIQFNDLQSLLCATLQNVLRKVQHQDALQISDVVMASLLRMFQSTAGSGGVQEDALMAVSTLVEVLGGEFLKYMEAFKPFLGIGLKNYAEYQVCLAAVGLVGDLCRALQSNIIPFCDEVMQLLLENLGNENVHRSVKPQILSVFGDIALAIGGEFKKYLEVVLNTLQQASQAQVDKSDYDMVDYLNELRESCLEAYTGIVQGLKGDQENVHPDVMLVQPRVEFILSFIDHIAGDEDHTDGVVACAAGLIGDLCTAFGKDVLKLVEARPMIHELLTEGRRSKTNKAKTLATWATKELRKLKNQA
#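 FRET biosensor (snurportin 1 IBB flanked by EYFP and cerulean), 50 nM, with compound 5 min, then 0.125 microM importin beta in PBS, 1 mM DTT, 0.02% Tween-20, 0.1% BSA. CFP/YFP ratio read after 45 min at room temperature; pre-read flags interference.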
# Rango dissoc inh: inhibition of RanGTP-driven Rango-importin beta dissociation; O95149+P62826; Biochemical FRET Rango-importin beta, RanGTP-induced dissociation; Potency, µM (highest dose often 46.1 µM), without a hit: at the top dose activity change, negative = inhibition; 0.071% of 340,000 active; active means falling FRET ratio curve, often poorly fitted, with flat reads before Ran was added; inconclusive means other falling curves, or compound fluorescence or quenching; inactive means flat or rising ratio curve;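 note: potency is the fitted concentration of half-maximal effect; % of control where 0% means no effect; nearly all actives have a fitted effect of over 45% in size; -100% = wells without RanGTP and RCC1; the record marks most hits as doubtful in a second field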
#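 Rango FRET biosensor (snurportin-1 IBB flanked by N-terminal EYFP and C-terminal CFP10) at 0.1 uM, with 0.25 uM importin beta in PBS, 1mM DTT, 0.02% Tween-20, 0.1% BSA. 0.6 uM Ran, 2mM GTP and 0.2 uM RCC1 were then added for 45 min at room temperature. Inhibition read as loss of FRET rise.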
# An asterisk follows results filed as active; ? = inconclusive; . = no result given; & = joins results of further samples.
Rango dissoc inh	Rango complex inh	structure	GLA inh pH 4.5	miR-21 FLuc
4%	-0.8%	COCCC(=O)N1CCC(n2nccc2NC(=O)CCc2ccccc2)CC1	.	1%
-1%	-1.0%	NS(=O)(=O)c1ccc(CNC(=O)CCC2CCCCC2)cc1	13	-4%
4%	-1.6%	O=C(Nc1cccc(Oc2c(F)c(F)c(F)c(F)c2F)c1)N1C[C@@H]2C[C@@H](C1)c1cccc(=O)n1C2	-9&3	-12%&-10%
-16%	-3.1%	O=C(c1cc(F)ccc1F)C1CCCN(Cc2cccn2-c2ccccn2)C1 (stereo unspecified)	-5	15%
-1%	0.6%	COCCNC(=O)c1cn(C)c2ccc(S(=O)(=O)N(C)C3CCCCC3)cc2c1=O	0	0%
0%	4.9%	COc1cc(OC)c(/C=N/NC(=O)COc2cccc3cccnc23)c(OC)c1	-3	-1%
-13%	-2.1%	CC(C)(C)c1nc(NC(=O)Nc2ccccc2)sc1Br	-3	17%
1%	1.2%	Cc1cccc(Nc2nnc(SCC(=O)NC3CCCc4ccccc43)s2)c1 (stereo unspecified)	-3	12%
5%	4.9%	COc1ccccc1Nc1c([N+](=O)[O-])cncc1[N+](=O)[O-]	-5	-6%
-2%	-1.0%	C=CCn1c(Cc2ccc(OC)cc2)nnc1SCc1nc2ccccc2c(=O)[nH]1	-7	-3%
1%	-0.2%	CC(=O)Nc1sc2c(c1C(N)=O)CCC2	-2	0%
1%	0.6%	O=[N+]([O-])c1ccc(N2CCN(c3nc(-c4ccc(Cl)cc4)cs3)CC2)cc1	-28	0%
-9%	-3.6%	CC1C(=O)Nc2ccccc2N1C(=O)c1ccc(F)cc1 (stereo unspecified)	.	-2%
-3%	0.0%	CCCCN(C)C(=S)Nc1ccc2nc3n(c(=O)c2c1)CCCCC3	-6	-8%
-15%	0.1%	COc1ccc(OC)c(S(=O)(=O)n2nc(-c3ccccc3)cc2N)c1	1	3%
3%	4.8%	CCOc1ccc(OCCSc2nc3ccccc3[nH]2)cc1	7	4%
2%	3.7%	COc1ccc(SC[C@H](Cc2ccccc2)N2CCN(C)CCC2=O)cc1	0	-1%
-20%	11%	O=C(O)CCCCCNC(=O)CCn1nnc2ccccc2c1=O	5	-9%
7%	0.1%	COc1ccc(CCNC(=O)C2CCC(=O)N(C3CC3)C2)c(OC)c1 (stereo unspecified)	.	0%
-1%	-0.9%	O=C(C1=C[C@@H](C2CCCCC2)C[C@@H](OCCCCO)O1)N1CCN(Cc2ccccc2)CC1	-4	5%
17%	-1.9%	COCCCNC(=O)c1cccc(S(=O)(=O)N2CC3(C)CC2CC(C)(C)C3)c1 (stereo unspecified)	.	.
14%	2.1%	COc1ccccc1NC(=O)NC1CCS(=O)(=O)C1 (stereo unspecified)	.	0%
24%	-1.6%	CCOC(=O)c1ccccc1NC(=O)c1ccc2c(=O)n3c(nc2c1)CCCCC3	?	-6%
-5%	-5.7%	COc1ccc(NC(=O)c2cccc(S(=O)(=O)NCc3ccccc3)c2)cc1S(N)(=O)=O	.	.
?	?	Cc1cc2nc3c(=O)n(CCc4ccccc4)c(=O)[nH]c3nc2cc1N	-1	-6%
2%	0.4%	COc1cc2c(cc1OC)CN(C(=O)CN(C)S(=O)(=O)c1ccc(NC(C)=O)cc1)CC2	.	0%
-2%	-2.2%	Cn1c(=O)c2c(ncn2CC(=O)N/N=C/c2ccc(Br)s2)n(C)c1=O	4	-4%
16%	1.4%	CC1CC(C)(C)NC(=S)N1CCCC(=O)N1CCN(c2ccccc2F)CC1 (stereo unspecified)	6	-8%
8%	-0.3%	Cc1oc(-c2ccccc2F)nc1CS(=O)(=O)CC(=O)N1CCN(Cc2ccccc2)CC1	-1	6%
-2%	-0.4%	CSc1ccccc1NC(=O)COC(=O)/C=C/c1ccco1	.	.
-12%	4.9%	COC(=O)c1sc2ccccc2c1-n1cccc1C(=O)C(=O)Nc1ccc(OC)cc1	-20	7%
-16%	-5.3%	CCOC(=O)c1c(C)[nH]c(C(=O)OCC(=O)NC2CCS(=O)(=O)C2)c1C (stereo unspecified)	-7	-7%
15%	2.4%	CCN(c1ccccc1C(=O)O)S(=O)(=O)c1cccc2nsnc12	.	-1%
1%	6.4%	O=C(Nc1cccc(Cl)c1)C1C2C=CC3(O2)C1C(=O)N(CCCN1CCCCC1)C3C(=O)NC1CCCCC1 (stereo unspecified)	.	0%
1%	4.5%	Cc1ccc(S(=O)(=O)N/N=C/c2cccc3c2OCCO3)cc1	4	-6%
-10%	0.4%	CCOC(=O)N1CCN(S(=O)(=O)CCNC(=O)c2cccc(OC)c2)CC1	.	.
-2%	-3.2%	O=C(ON=C1CCN(S(=O)(=O)c2ccccc2)CC1)c1ccc(Cl)cc1	-2	-1%
5%	-1.5%	CCOc1ccc(S(=O)(=O)N2CCOCC2)cc1NS(=O)(=O)c1ccc(OC)c([N+](=O)[O-])c1	.	.
-22%	-0.9%	COc1ccc(-c2nnc(SCc3cccc(C#N)c3)o2)cc1	-5	-12%
28%	1.5%	Cc1ccc(C(=O)NCC(=O)OCC(=O)c2ccc3c(c2)NC(=O)CO3)cc1C	-10	5%
-8%	-1.3%	CCNC(=S)N1CCN(c2ccc([N+](=O)[O-])cc2)CC1	-5	16%
-4%	2.8%	Cc1ccc(S(=O)(=O)N2CCCCC2)cc1C(=O)N1CCCCCC1	.	.
2%	1.6%	CN1CCN(CC(=O)Nc2ccccc2Sc2ccccc2)CC1	6	-2%
-17%	3.7%	CN1CCN(c2ccc(NC(=O)c3ccc4c(c3)OCO4)cc2)CC1	7	-52%
?	?	COC(=O)[C@H]1[C@H]2C[C@H]3c4[nH]c5ccccc5c4CCN3C[C@@H]2CC[C@@H]1O	.	.
-6%	2.6%	CCc1c(C)nc(SCCOc2ccc(OC)cc2)[nH]c1=O	4	-22%
?	?	CCc1nnc(NC(=O)CSc2nc3c(cc2C#N)CCCC3)s1	0	-35%

# A second format for part of the listing above.
Rango dissoc inh	Rango complex inh	GLA inh pH 4.5	miR-21 FLuc	SMILES
1%	6.4%	.	0%	O=C(Nc1cccc(Cl)c1)C1C2C=CC3(O2)C1C(=O)N(CCCN1CCCCC1)C3C(=O)NC1CCCCC1 (stereo unspecified)
1%	4.5%	4	-6%	Cc1ccc(S(=O)(=O)N/N=C/c2cccc3c2OCCO3)cc1
-10%	0.4%	.	.	CCOC(=O)N1CCN(S(=O)(=O)CCNC(=O)c2cccc(OC)c2)CC1
-2%	-3.2%	-2	-1%	O=C(ON=C1CCN(S(=O)(=O)c2ccccc2)CC1)c1ccc(Cl)cc1
5%	-1.5%	.	.	CCOc1ccc(S(=O)(=O)N2CCOCC2)cc1NS(=O)(=O)c1ccc(OC)c([N+](=O)[O-])c1
-22%	-0.9%	-5	-12%	COc1ccc(-c2nnc(SCc3cccc(C#N)c3)o2)cc1
28%	1.5%	-10	5%	Cc1ccc(C(=O)NCC(=O)OCC(=O)c2ccc3c(c2)NC(=O)CO3)cc1C
-8%	-1.3%	-5	16%	CCNC(=S)N1CCN(c2ccc([N+](=O)[O-])cc2)CC1
-4%	2.8%	.	.	Cc1ccc(S(=O)(=O)N2CCCCC2)cc1C(=O)N1CCCCCC1
2%	1.6%	6	-2%	CN1CCN(CC(=O)Nc2ccccc2Sc2ccccc2)CC1
-17%	3.7%	7	-52%	CN1CCN(c2ccc(NC(=O)c3ccc4c(c3)OCO4)cc2)CC1
?	?	.	.	COC(=O)[C@H]1[C@H]2C[C@H]3c4[nH]c5ccccc5c4CCN3C[C@@H]2CC[C@@H]1O
-6%	2.6%	4	-22%	CCc1c(C)nc(SCCOc2ccc(OC)cc2)[nH]c1=O
?	?	0	-35%	CCc1nnc(NC(=O)CSc2nc3c(cc2C#N)CCCC3)s1

# These rows are one share of the data; count on the stated rates, not on these rows.
